Screening data deposited in PubChem by Broad Institute.
Ran importin = RanGTP/importin-beta interaction disruptors – biochemical, CFP-Ran/YFP-importin-beta FRET, RCC1, cell-free, primary screen (AID 434961); 7,700 compounds, 0.2% hits; CFP-Ran/YFP-importin-beta FRET, cell-free; stronger effect = higher value; inhibition, %;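 active = more than half of the replicate wells above 15% inhibition; inconclusive = exactly half above it; inactive = fewer than half above it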;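 also: 0% = DMSO wells and 100% inhibition = RanGDP control wells on each plate; stock of unstated strength diluted about 400-fold; mean of two wells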
Active calls of the source: *; ? = inconclusive. Some of the compounds tested; rates above refer to the full screens.

molecule,Ran importin
C[C@@H]1CN([C@H](C)CO)C(=O)c2cccc(NC(=O)c3ccncc3)c2O[C@H]1CN(C)Cc1ccc(Cl)c(Cl)c1,3.6
C[C@@H]1CN([C@H](C)CO)C(=O)Cc2cc(NC(=O)Nc3ccc4c(c3)OCO4)ccc2O[C@@H]1CN(C)C(=O)Nc1cccc2ccccc12,-2.6
C[C@@H]1CN([C@@H](C)CO)C(=O)Cc2cc(NC(=O)Cn3cnnn3)ccc2O[C@@H]1CN(C)C(=O)Nc1ccc(F)cc1,-3.6
C[C@H]1CN([C@@H](C)CO)C(=O)c2cccc(NS(=O)(=O)c3cn(C)cn3)c2O[C@@H]1CN(C)C(=O)Nc1ccc(C(F)(F)F)cc1,6.6
C[C@H]1CCCCO[C@@H](CN(C)C(=O)Nc2ccccc2)[C@@H](C)CN([C@@H](C)CO)C(=O)c2cc(NC(=O)c3ccncc3)ccc2O1,1.7
C[C@@H]1CN([C@@H](C)CO)C(=O)Cc2cc(NC(=O)Nc3cccc4ccccc34)ccc2O[C@@H]1CN(C)Cc1ccncc1,5.9
C[C@H]1CN([C@@H](C)CO)C(=O)c2cc(N(C)C)ccc2O[C@@H]1CN(C)C(=O)Nc1ccc2c(c1)OCO2,-0.7
C[C@H](CO)N1C[C@H](C)[C@H](CN(C)Cc2ccccc2)OCc2cnnn2CCCC1=O,-1.7
COc1ccc(NC(=O)Nc2cccc3c2O[C@@H](CN(C)S(=O)(=O)c2ccc(Cl)cc2)[C@@H](C)CN([C@@H](C)CO)C3=O)cc1,-2.4
CNC[C@@H]1Oc2c(NC(=O)NC3CCCCC3)cccc2C(=O)N([C@@H](C)CO)C[C@@H]1C,0.2
COc1ccc(CN(C)C[C@@H]2Oc3ccc(NS(=O)(=O)c4ccc(Cl)cc4)cc3CC(=O)N([C@H](C)CO)C[C@H]2C)cc1,-2.1
C[C@H]1CCCCO[C@H](CN(C)C(=O)C2CCCCC2)[C@@H](C)CN([C@@H](C)CO)C(=O)c2cc(N(C)C)ccc2O1,-6.7
C[C@H](CO)N1C[C@H](C)[C@H](CN(C)C(=O)Nc2ccccc2)OCCCC[C@H](C)Oc2ccc(NC(=O)C3CCCCC3)cc2C1=O,-3.1
C[C@H](CO)N1C[C@H](C)[C@@H](CN(C)S(=O)(=O)c2ccccc2)Oc2c(NC(=O)NC3CCCCC3)cccc2C1=O,-0.5
C[C@H](CO)N1C[C@H](C)[C@H](CN(C)C(=O)CCCN(C)C)OCCCC[C@H](C)Oc2ccc(NC(=O)Nc3cccc4ccccc34)cc2C1=O,2.3
C[C@@H]1CN([C@@H](C)CO)C(=O)c2cccc(NC(=O)NC3CCCCC3)c2O[C@@H]1CN(C)C,-1.4
C[C@H]1CN([C@@H](C)CO)C(=O)Cc2cc(NS(C)(=O)=O)ccc2O[C@@H]1CN(C)Cc1ccc(-c2ccccc2)cc1,2.2
COc1ccc(S(=O)(=O)N(C)C[C@@H]2Oc3ccc(NC(=O)NC(C)C)cc3C(=O)N([C@H](C)CO)C[C@H]2C)cc1,2.1
C[C@@H]1CN([C@@H](C)CO)C(=O)CCCn2cc(nn2)CO[C@H]1CN(C)Cc1ccc(Cl)c(Cl)c1,1.8
Cc1noc(C)c1S(=O)(=O)N(C)C[C@H]1OCCCC[C@@H](C)Oc2ccc(NC(=O)NC(C)C)cc2C(=O)N([C@@H](C)CO)C[C@@H]1C,-4.3
C[C@@H]1CN([C@H](C)CO)C(=O)Cc2cc(NC(=O)CCN3CCOCC3)ccc2O[C@H]1CN(C)Cc1ccc(-c2ccccc2)cc1,?
COc1ccc(S(=O)(=O)N(C)C[C@H]2Oc3c(NC(=O)c4cc(C)nn4C)cccc3C(=O)N([C@H](C)CO)C[C@H]2C)cc1,-5.0
COc1ccc(S(=O)(=O)N(C)C[C@H]2Oc3ccc(NC(=O)Cn4cnnn4)cc3C(=O)N([C@H](C)CO)C[C@H]2C)cc1,-1.5
COc1ccc(CN(C)C[C@H]2Oc3ccc(NC(=O)Cc4cn(C)c5ccccc45)cc3CC(=O)N([C@@H](C)CO)C[C@@H]2C)cc1,0.3
COc1ccc(S(=O)(=O)N(C)C[C@@H]2Oc3c(NC(=O)c4ccncc4)cccc3C(=O)N([C@@H](C)CO)C[C@H]2C)cc1,-7.2
C[C@@H]1CN([C@@H](C)CO)C(=O)c2cc(NS(=O)(=O)c3cccs3)ccc2O[C@H]1CN(C)C(=O)Nc1ccc2c(c1)OCO2,-2.8
C[C@@H]1CN([C@@H](C)CO)C(=O)c2cccc(N(C)C)c2O[C@H]1CN(C)Cc1ccc(C(=O)O)cc1,2.2
COc1ccc(S(=O)(=O)N(C)C[C@@H]2Oc3ncc(C#Cc4ccccc4)cc3C(=O)N([C@H](C)CO)C[C@@H]2C)cc1,-3.7
COc1ccc(CN(C)C[C@@H]2Oc3ccc(NC(=O)C4CC4)cc3CC(=O)N([C@H](C)CO)C[C@H]2C)cc1,-4.3
C[C@@H]1CN([C@@H](C)CO)C(=O)c2cc(NC(=O)C3CCCCC3)ccc2O[C@@H](C)CCCCO[C@@H]1CN(C)Cc1ccc(C(=O)O)cc1,7.4

(further entries)
molecule,Ran importin
C[C@H]1CN([C@@H](C)CO)C(=O)Cc2cc(NC(=O)NC3CCCCC3)ccc2O[C@H]1CN(C)Cc1ccc2c(c1)OCO2,0.5
C[C@@H]1CN([C@@H](C)CO)C(=O)c2cccc(NC(=O)Nc3ccc(C(F)(F)F)cc3)c2O[C@@H]1CN(C)Cc1ccc(C(=O)O)cc1,1.2
C[C@@H]1CN([C@H](C)CO)C(=O)c2cc(NC(=O)c3ccncc3)ccc2O[C@@H](C)CCCCO[C@@H]1CN(C)Cc1ccc(C(=O)O)cc1,-2.4
C[C@@H]1CCCCO[C@@H](CN(C)C(=O)c2ccncc2)[C@@H](C)CN([C@H](C)CO)C(=O)c2cc(NS(C)(=O)=O)ccc2O1,-3.9
Cc1noc(C)c1S(=O)(=O)N(C)C[C@@H]1Oc2c(NC(=O)c3ccc(-c4nccs4)cc3)cccc2C(=O)N([C@@H](C)CO)C[C@@H]1C,-0.9
C[C@H](CO)N1C[C@H](C)[C@H](CN(C)C(=O)NC2CCCCC2)Oc2ccc(NC(=O)Cc3ccccc3)cc2CC1=O,3.1
C[C@@H]1CCCCO[C@@H](CN(C)C(=O)CCC(F)(F)F)[C@@H](C)CN([C@@H](C)CO)C(=O)c2cc(N(C)C)ccc2O1,-8.9
CNC[C@@H]1Oc2c(N)cccc2C(=O)N([C@@H](C)CO)C[C@@H]1C,0.4
C[C@@H]1CCCCO[C@@H](CN(C)C(=O)c2ccccc2)[C@@H](C)CN([C@H](C)CO)C(=O)c2cc(NS(C)(=O)=O)ccc2O1,0.7
COc1ccc(S(=O)(=O)Nc2cccc3c2O[C@@H](CN(C)S(=O)(=O)c2cccs2)[C@H](C)CN([C@@H](C)CO)C3=O)cc1,-2.0
CNC[C@H]1OCCCC[C@@H](C)Oc2ccc(NC(=O)NC(C)C)cc2C(=O)N([C@@H](C)CO)C[C@@H]1C,1.2
CC(C)NC(=O)Nc1ccc2c(c1)C(=O)N([C@@H](C)CO)C[C@H](C)[C@H](CN(C)Cc1ccncc1)OCCCC[C@H](C)O2,2.6
C[C@@H]1CN([C@@H](C)CO)C(=O)c2cc(N(C)C)ccc2O[C@@H]1CN(C)S(=O)(=O)c1cccs1,-1.1
CC(C)NC(=O)N(C)C[C@@H]1Oc2c(NC(=O)C3CCOCC3)cccc2C(=O)N([C@@H](C)CO)C[C@@H]1C,-1.8
C[C@@H]1CN([C@H](C)CO)C(=O)c2cccc(NC(=O)c3ccncc3)c2O[C@H]1CN(C)S(=O)(=O)c1ccc(F)cc1,?
CNC[C@@H]1OCCCC[C@H](C)Oc2ccc(NC(=O)Cc3ccccc3)cc2C(=O)N([C@H](C)CO)C[C@@H]1C,3.5
C[C@@H]1CN([C@@H](C)CO)C(=O)c2cc(NS(C)(=O)=O)ccc2O[C@H]1CN(C)C(=O)Nc1ccc2c(c1)OCO2,3.0
C[C@@H]1CN([C@@H](C)CO)C(=O)c2cccc(NC(=O)C3CCOCC3)c2O[C@H]1CN(C)C(=O)Nc1ccccc1,5.6
C[C@@H]1CN([C@H](C)CO)C(=O)Cc2cc(NC(=O)CCC(F)(F)F)ccc2O[C@@H]1CN(C)C(=O)Nc1ccccc1,-0.9
C[C@@H]1CN([C@H](C)CO)C(=O)Cc2cc(NC(=O)Cc3ccccc3)ccc2O[C@@H]1CN(C)Cc1ccncc1,7.8
C[C@H]1CN([C@@H](C)CO)C(=O)c2cc(NS(=O)(=O)c3cccs3)ccc2O[C@@H]1CN(C)C(=O)Nc1ccc(F)cc1,-3.4
Cc1noc(C)c1S(=O)(=O)Nc1ccc2c(c1)C(=O)N([C@@H](C)CO)C[C@H](C)[C@H](CN(C)C(=O)Nc1ccc3c(c1)OCO3)O2,-1.2
COc1ccc(S(=O)(=O)Nc2ccc3c(c2)CC(=O)N([C@@H](C)CO)C[C@@H](C)[C@H](CN(C)CC2CC2)O3)cc1,0.5
C[C@@H]1CN([C@H](C)CO)C(=O)c2cccc(NC(=O)C3CCOCC3)c2O[C@@H]1CN(C)Cc1ccccc1,5.3
C[C@H](CO)N1C[C@H](C)[C@H](CN(C)S(=O)(=O)c2ccc(Cl)cc2)Oc2ccc(NC(=O)NC3CCCCC3)cc2CC1=O,-1.9
COc1ccc(S(=O)(=O)N(C)C[C@H]2Oc3ccc(NS(C)(=O)=O)cc3CC(=O)N([C@H](C)CO)C[C@H]2C)cc1,?
CNC[C@H]1Oc2c(NS(=O)(=O)c3ccc(Cl)cc3)cccc2C(=O)N([C@H](C)CO)C[C@@H]1C,-3.7
C[C@@H]1CN([C@H](C)CO)C(=O)Cc2cc(NC(=O)C3CC3)ccc2O[C@H]1CN(C)S(=O)(=O)c1cn(C)cn1,1.5
COc1ccc(NC(=O)N(C)C[C@H]2Oc3c(cccc3N(C)C)C(=O)N([C@H](C)CO)C[C@H]2C)cc1,-1.8
C[C@H](CO)N1C[C@H](C)[C@H](CN(C)C(=O)NC2CCCCC2)Oc2ccc(NC(=O)Nc3ccc(F)cc3)cc2CC1=O,0.2

More records
molecule,Ran importin
C[C@@H]1CN([C@@H](C)CO)C(=O)c2cc(NS(=O)(=O)c3ccc(Cl)cc3)ccc2O[C@H]1CN(C)C(=O)Nc1ccc(F)cc1,-6.0
C[C@@H]1CN([C@@H](C)CO)C(=O)c2cc(NS(=O)(=O)c3ccccc3)ccc2O[C@@H](C)CCCCO[C@@H]1CN(C)C(=O)c1ccncc1,-6.6
CNC[C@@H]1OCCCC[C@@H](C)Oc2ccc(NC(=O)C3CCCCC3)cc2C(=O)N([C@H](C)CO)C[C@H]1C,2.5
C[C@@H]1CN([C@H](C)CO)C(=O)CCCn2nncc2CO[C@@H]1CN(C)S(=O)(=O)c1ccc2ccccc2c1,0.9
Cc1noc(C)c1NC(=O)N(C)C[C@H]1Oc2ccc(NC(=O)Cc3ccccc3)cc2C(=O)N([C@H](C)CO)C[C@@H]1C,-4.5
C[C@@H]1CCCCO[C@@H](CN(C)C(=O)C2CCCCC2)[C@@H](C)CN([C@@H](C)CO)C(=O)c2cc(N(C)C)ccc2O1,8.9
C[C@H](CO)N1C[C@H](C)[C@H](CN(C)C(=O)CCC(F)(F)F)OCCCC[C@H](C)Oc2ccc(N(C)C)cc2C1=O,3.0
C[C@@H]1CN([C@@H](C)CO)C(=O)c2cc(N(C)C)ccc2O[C@@H]1CN(C)Cc1ccc2c(c1)OCO2,-1.0
Cc1ccc(S(=O)(=O)Nc2ccc3c(c2)CC(=O)N([C@@H](C)CO)C[C@@H](C)[C@H](CN(C)C(=O)Nc2c(C)noc2C)O3)cc1,3.6
C[C@@H]1CN([C@@H](C)CO)C(=O)c2cc(NS(C)(=O)=O)ccc2O[C@H]1CN(C)C(=O)Nc1ccccc1,-1.9
C[C@@H]1CCCCO[C@@H](CN(C)C(=O)Nc2ccccc2)[C@H](C)CN([C@H](C)CO)C(=O)c2cc(NC(=O)CCCN(C)C)ccc2O1,-4.1
CC(C)NC(=O)Nc1ccc2c(c1)C(=O)N([C@@H](C)CO)C[C@@H](C)[C@H](CN(C)C(=O)CCCN(C)C)OCCCC[C@@H](C)O2,-3.5
Cc1noc(C)c1NC(=O)Nc1cccc2c1O[C@@H](CN(C)Cc1ccc(C(F)(F)F)cc1)[C@H](C)CN([C@@H](C)CO)C2=O,-0.9
CC(C)NC(=O)N(C)C[C@H]1OCCCC[C@@H](C)Oc2ccc(NC(=O)c3ccncc3)cc2C(=O)N([C@@H](C)CO)C[C@H]1C,2.0
Cc1noc(C)c1S(=O)(=O)N(C)C[C@H]1OCCCC[C@@H](C)Oc2ccc(N(C)C)cc2C(=O)N([C@H](C)CO)C[C@@H]1C,?

Exported field by field: part of the list above
Cc1ccc(S(=O)(=O)Nc2ccc3c(c2)CC(=O)N([C@@H](C)CO)C[C@@H](C)[C@H](CN(C)C(=O)Nc2c(C)noc2C)O3)cc1
  Ran importin: 3.6
C[C@H](CO)N1C[C@H](C)[C@H](CN(C)C(=O)NC2CCCCC2)Oc2ccc(NC(=O)Nc3ccc(F)cc3)cc2CC1=O
  Ran importin: 0.2
CNC[C@@H]1Oc2c(N)cccc2C(=O)N([C@@H](C)CO)C[C@@H]1C
  Ran importin: 0.4
CC(C)NC(=O)Nc1ccc2c(c1)C(=O)N([C@@H](C)CO)C[C@@H](C)[C@H](CN(C)C(=O)CCCN(C)C)OCCCC[C@@H](C)O2
  Ran importin: -3.5
